B2AR ag = human beta-2 adrenergic receptor agonism by FAP. response, % (no concentration beside the values). P07550. AID 504454. Am2.2-beta2AR cells, FAP receptor internalization, flow cytometry; reference of the scale not given here. actives 0.43% (n = 340,000);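 active = response above a set limit, near 3 SD of response in nonfluorescent compounds, cut at about 42% in these data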;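 also: stock transfer was 100 nL into about 11 µL; a reference agonist was the positive control; negative values mostly stem from fluorescent compounds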
UCH37 DUB inh = inhibitors of human deubiquitinating enzyme UCH37; Q9Y5K5; purified proteasome/UCH37, Ub-AMC cleavage fluorescence; inhibition, % (concentration not given with the values); actives 0.33% (n = 330,000);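 active = mean of two replicates above 20%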;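 also: 0% = compound-free wells with enzyme and 100% = wells lacking proteasome; stock transfer was 100 nL into about 20 µL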
Target sequence (Q9Y5K5 whole entry, looked up): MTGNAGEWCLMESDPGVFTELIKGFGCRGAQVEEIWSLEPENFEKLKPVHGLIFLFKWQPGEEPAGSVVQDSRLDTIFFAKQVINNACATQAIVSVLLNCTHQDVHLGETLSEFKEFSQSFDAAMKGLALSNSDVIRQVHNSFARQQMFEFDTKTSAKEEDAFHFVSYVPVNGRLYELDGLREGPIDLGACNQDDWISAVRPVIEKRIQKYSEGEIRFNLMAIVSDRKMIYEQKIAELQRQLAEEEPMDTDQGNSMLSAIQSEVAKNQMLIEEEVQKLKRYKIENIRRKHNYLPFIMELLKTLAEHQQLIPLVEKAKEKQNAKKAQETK
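Assay system: Proteasome-bound UCH37. Buffer or medium: pH 7.4 Tris-HCl (50 mM) with ovalbumin, ATP-MgCl2, DTT. Incubation: 30 min preincubation with enzyme, 25 min cleavage at room temperature. Measured by: fluorescence, ex 355 nm, em 460 nm. Read-out basis: percent inhibition. Control set: wells without proteasome as full block, compound-free enzyme plus substrate as uninhibited.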
Vif A3G = inhibitors of Vif binding to APOBEC3G peptide, primary screen, biochemical, TR-FRET, GST-Vif 1-94, biotin-A3G peptide, dose response retest (AID 1117319). TR-FRET GST-Vif / biotin-A3G peptide binding; higher % means a stronger effect; test concentration not given here; strong numbers were not always called active. inhibition, %, or IC50 in µM where a hit was titrated. actives 0.57% (n = 260,000);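 active = above the screen mean plus three standard deviations and confirmed in dose response; inconclusive = results disagree or hit not tested in dose response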;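 also: Vif residues 1-94 fused to GST binding biotinylated APOBEC3G peptide 110-148; 0% = full assay without inhibitor and 100% = GST in place of GST-Vif; retest series ran down from 100 µM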
Bfl-1 A1 inh = inhibitors of the anti-apoptotic protein A1, read as caspase activation; actives 0.066% (n = 330,000); caspase activation, % (test concentration not listed); MEF A1-2A-BIM cells, Caspase-Glo 3/7 luminescence, 3 h; percent of clofoctol response, vehicle zero;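 active = over half of replicate activation scores above 10%, or exactly half above 10 with the replicate mean above 10; inconclusive = replicate mean below 10 yet half the replicates above 10; inactive = over half of replicates below 10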;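 also: wells of about 30 µL received 50 nL stock; many hits fall short of the cut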
LANA-H2B inh = blocks KSHV LANA binding to histone H2A/H2B. inhibition, % (test concentration not listed). Q9QR71. cell-free LANA-H2A/H2B peptide, fluorescence polarization. actives 0.6% (n = 320,000); in the data active = inhibition mostly above about 10%, no sharp cut-off; inactive = mostly below about 6.7%;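 also: stock transfer was 7.5 nL into about 10 µL; 0% = median of vehicle wells and 100% = median of positive control wells; one replicate is shown; the record names a cut of 25% in any replicate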
Ecoli growth = E. coli growth inhibition | Escherichia coli growth, OD600, 23 h; active compounds read low | OD600 absorbance (no concentration beside the values) | actives 0.21% (n = 330,000) | AID 1053175;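 active = OD600 absorbance below the run mean of sample wells minus 3.6 SD, in any replicate, cut at about 0.56 in these data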;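 also: stock transfer was 300 nL into about 60 µL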
HNF4A DNA FP = change in binding of human HNF4 alpha to DNA; AID 1224865; actives 0.3% (n = 360,000); P41235; HNF4a-FITC DNA binding, fluorescence polarization, 1 h; activity change, % at 10 µM; in the data active = activity change above about 30%, passing the limit was not always enough;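 also: controls were the assay level and a saturating level of protein; the project sought stronger binding though the title names inhibitors; some compounds called inactive have numbers as strong as hits; positive values seem to mean higher polarization but the record does not say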
Target sequence (P41235 whole entry, looked up): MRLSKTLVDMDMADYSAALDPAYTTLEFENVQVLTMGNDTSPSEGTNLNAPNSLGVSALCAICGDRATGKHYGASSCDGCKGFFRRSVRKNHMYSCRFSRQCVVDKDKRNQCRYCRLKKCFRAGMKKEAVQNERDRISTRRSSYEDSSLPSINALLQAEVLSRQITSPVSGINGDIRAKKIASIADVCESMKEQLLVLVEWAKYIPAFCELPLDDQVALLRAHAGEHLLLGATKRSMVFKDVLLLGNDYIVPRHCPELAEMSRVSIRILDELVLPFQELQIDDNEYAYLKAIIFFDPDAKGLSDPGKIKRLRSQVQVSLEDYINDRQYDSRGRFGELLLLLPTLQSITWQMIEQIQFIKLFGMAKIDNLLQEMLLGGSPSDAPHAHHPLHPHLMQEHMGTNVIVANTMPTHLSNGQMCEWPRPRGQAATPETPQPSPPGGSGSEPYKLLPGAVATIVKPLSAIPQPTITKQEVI
* hit, by the source's call; ? = inconclusive; . = not tested or not shown.

SMILES	B2AR ag	UCH37 DUB inh	Vif A3G	Bfl-1 A1 inh	LANA-H2B inh	Ecoli growth	HNF4A DNA FP
Cc1cc(S(=O)(=O)Nc2ccc(C(=O)NCc3ccncc3)cc2)ccc1F	0	2.0	.	1.0	5.2	0.69	0.4
O=C(O)CCCC(=O)Nc1ccc(Oc2cccc(C(F)(F)F)c2)nc1	-1	4.0	-5%	-1.2	-1.4	0.68	3.2
Cc1ccc(NC(=O)CSc2nnc(C)c(=O)[nH]2)cc1C	-3	3.6	-5%	1.8	1.1	0.67	-4.0
C=CCNC(=S)NNC(=O)c1csc(C)c1CC	5	1.4	7%	0.0	11	0.7	-1.8
CCN1C[C@@H]2[C@@H]3C(=O)N(C)C(=O)[C@@H]3[C@](Cc3ccccc3)(C1=O)N2C(=O)c1ccc(Br)cc1	-2	5.1	.	.	.	.	-3.1
O=C(NN=C1CCCCCC1)NC1CCCCC1	4	1.1	9%	0.0	-2.7	0.63	0.6
COc1ccccc1NC(=O)CCN1C(=O)/C(=C/c2cc(OC)c(OC)c(OC)c2)SC1=S	-4	2.5	.	0.2	-2.1	0.73	-2.1
Cc1cc(OCCCCCNCCO)ccc1Cl	8	0.1	?	-1.1	-9.2	0.65	-5.3
Cc1ccc(OCC(=O)NNC(=O)C2CCN(c3ncccn3)CC2)cc1	-11	-5.0	-6%	0.3	-3.3	0.65	1.5
Cn1ncc(C#N)c1NC(=O)C1CC(c2c(F)cccc2Cl)=NO1 (stereo not given)	5	3.4	-5%	-0.6	-1.5	0.75	-3.8
N#Cc1ccccc1Cn1c(=O)n(C2CCCC2)c(=O)c2ccccc21	1	0.2	3%	-0.2	-2.6	0.73	-0.3
Cc1ccc(C)c(C(=O)NCc2ccncc2)c1	4	0.0	24%	-0.1	0.8	0.76	0.3
COc1ccccc1N(C)S(=O)(=O)c1ccc(C(=O)N(C)Cc2ccc(Cl)s2)cc1	7	0.6	-7%	-0.5	-5.0	0.69	0.1
Cc1cc(NC(=O)c2noc3c2CCCC3)n(-c2ccccc2)n1	-2	-0.2	1%	0.1	0.7	0.63	-0.7
CC(C)CNC(=O)c1cccc(NC(=O)c2ccc3c(c2)C(=O)N(C)C3=O)c1	-4	5.9	.	0.2	5.8	0.66	-3.7
O=C1OC(c2ccccc2)=N/C1=C\C=C\c1ccccc1[N+](=O)[O-]	8	4.8	.	0.2	12*	0.69	-0.7
CN(c1ccccc1)S(=O)(=O)c1cccc(C(=O)NCCCN2CCCC2=O)c1	-6	3.5	0%	0.5	6.9	0.66	4.8
O=c1[nH]c2cc3c(cc2cc1CN(CCO)S(=O)(=O)c1ccccc1)OCCO3	-3	-93	-13%	-0.9	-16	0.74	1.1
O=C(COc1ccccc1[N+](=O)[O-])Nc1ccccc1N1CCCCC1	-24	0.9	-1%	0.7	0.2	0.69	-0.7
CS(=O)(=O)N(CC(=O)N1CCN(c2ccccc2)CC1)Cc1ccc(Cl)cc1	2	1.3	18%	1.2	1.1	0.65	-1.3
CCc1cccc(C)c1NC(=O)N(C)C1CCCCC1	-4	-0.5	?	0.8	2.2	0.68	-0.6
CCN(CC)S(=O)(=O)c1ccc(C(=O)NN(C)C2=NS(=O)(=O)c3ccccc32)cc1	27	6.1	.	0.1	-0.5	0.7	-0.7
C=C1c2ccccc2O[C@H](C(=O)OCC)[C@@H]1C1CCCCC1	4	0.2	0%	.	.	0.7	-3.4
CCOc1ccc(C=NN2CCCCCC2)cc1OCC	-5	2.1	-8%	.	.	0.68	3.0
O=C(NCc1ccc(F)cc1)C(c1ccccc1)N(C(=O)c1csnn1)c1ccccc1 (stereo not given)	10	0.9	.	-0.6	1.3	0.66	1.8
SMILES	B2AR ag	UCH37 DUB inh	Vif A3G	Bfl-1 A1 inh	LANA-H2B inh	Ecoli growth	HNF4A DNA FP
O=C(NCC(c1ccco1)N1CCOCC1)c1ccc(C(F)(F)F)cc1 (stereo not given)	4	-0.2	4%	-0.5	-2.7	0.68	-0.8
O=S(=O)(c1ccc(F)c(Cl)c1)N1CCN(C/C=C/c2ccccc2)CC1	-8	-1.2	.	-0.3	-1.6	0.63	1.4
Cc1sc2ncnc(N3CCC(C(=O)Nc4cc(Cl)ccc4Cl)CC3)c2c1C	2	-1.3	-13%	-0.3	2.3	0.7	0.2
S=c1[nH]nc(-c2cccs2)n1/N=C/c1c(Cl)cccc1Cl	-3	.	.	0.1	2.6	.	-0.8
CCN(CC)S(=O)(=O)c1ccc(N2CCCC2)c(NC(=O)Cc2ccccc2)c1	-6	5.0	.	0.5	-4.4	0.69	-0.5
CCOC(CNC(=O)c1cccc([N+](=O)[O-])c1)OCC	12	4.4	8%	1.3	-0.4	0.63	4.7
O=C(CNS(=O)(=O)c1ccc(Br)cc1)N1CCN(Cc2ccccc2)CC1	-1	.	-7%	-0.1	-3.7	.	-1.2
O=C(CSc1ccc(Br)cc1)NC1CCS(=O)(=O)C1 (stereo not given)	-3	2.8	2%	0.6	0.7	0.65	1.8
Oc1cccc(NC(=S)Nc2cccnc2)c1	1	0.0	9%	-0.4	-1.0	0.65	1.1
CC(=O)N1Cc2cc([N+](=O)[O-])ccc2Oc2ccccc21	-6	6.7	-11%	0.5	5.2	0.7	-5.7
COc1ccc(-c2c(-c3ccsc3)oc(=O)c3cc(OC)c(OC)cc23)cn1	-20	1.2	.	-0.5	1.1	0.7	3.2
COc1ccc(NC(=O)Nc2ccc3c(c2)N(C)C(=O)CS3)cc1OC	14	5.4	1%	-0.3	1.1	0.73	1.4
O=C(CSc1nnc(-c2ccncc2)o1)Nc1nncs1	6	-3.7	.	0.1	1.3	0.66	0.9
CCCC(=O)NC(c1cccs1)c1cc(Cl)c2cccnc2c1O (stereo not given)	10	6.1	17%	1.1	2.7	0.7	4.2
O=C(Cc1cccc2ccccc12)Nc1ccc2oc(-c3ccccc3)nc2c1	-4	-23	-11%	-0.7	0.5	0.7	3.2
COc1ccc(-c2cc3c(=O)n(CC(=O)NCc4ccc(F)cc4)ncn3n2)cc1	8	-6.0	.	-0.8	-4.2	0.7	0.8
COc1cc(OC)cc(-c2n[nH]c(=S)n2-c2cc(OC)ccc2OC)c1	0	-0.4	2%	0.5	1.4	0.71	1.7
O=C(NCc1cccs1)C1CC(=O)N(c2ccc(Cl)cc2)C1 (stereo not given)	-6	0.5	4%	-0.4	-2.8	0.68	-3.2
COc1ccc(NC(=O)NCc2ccc3c(c2)OCO3)cc1	-1	-0.6	-2%	-0.2	-2.6	0.72	1.8
COC(=O)C1=C(C)N(Cc2ccco2)C(=O)N[C@@H]1c1ccco1	-1	-1.4	.	1.5	1.6	.	4.3
CN(C(=O)c1cccc(NC(=O)c2ccco2)c1)c1ccccc1	-2	2.0	.	2.2	3.3	0.64	6.0
C=CCOC(=O)C1=C[C@H](c2ccc(C(F)(F)F)cc2)[C@@H](CCCO)[C@H](OCC)O1	-3	0.8	.	-0.7	-0.5	.	2.2
COc1ccc(Br)cc1CN(C)C(C)C(=O)Nc1cccc(C(C)=O)c1 (stereo not given)	-6	5.4	-4%	0.1	-1.6	0.69	10
O=C1CN(c2nc(-c3ccccc3)c3cc(Cl)ccc3n2)c2ccccc2N1	6	.	.	-0.6	3.7	.	7.7
CCOC(=O)c1c(NC(=O)CCC(=O)N(CC)CC)sc2c1CC(C)(C)OC2	3	1.5	-1%	1.5	-5.3	0.65	5.1
SMILES	B2AR ag	UCH37 DUB inh	Vif A3G	Bfl-1 A1 inh	LANA-H2B inh	Ecoli growth	HNF4A DNA FP
COC(=O)c1ccccc1NC(=O)CSc1nnnn1CC(=O)O	-3	0.9	.	-0.8	0.2	0.71	-0.3
O=C(Nc1ccc(F)cc1)c1nsc(Cl)c1Cl	0	3.0	-1%	-0.3	-2.2	0.74	-1.7
Cc1cc(C)c(NC(=O)CN(c2ccccc2)S(=O)(=O)N(C)C)c(C)c1	-3	1.6	12%	0.0	-1.1	0.69	-4.5
CN(C)CCCN(C(=O)c1ccc(S(=O)(=O)N2CCCCC2)cc1)c1nc2cc3c(cc2s1)OCO3	24	3.4	.	0.0	-3.9	0.69	3.0
N#C/C(=C/c1ccc(N2CCCCC2)cc1)c1cccc(F)c1	15	4.2	-3%	0.1	-9.4	0.64	8.2
CC(=O)c1c(O)c2cccc3c2n(c1=O)CCC3	-3	-3.4	0%	0.4	5.7	0.67	0.0
COc1ccc(C(=O)N(Cc2ccco2)Cc2cc3cc(C)ccc3[nH]c2=O)cc1OC	0	1.1	.	0.3	11	0.75	-1.0
Cc1ccc(CNC(=O)C2CCC(=O)N(C3CC3)C2)cc1 (stereo not given)	1	-1.4	.	-0.1	4.0	0.69	1.6
O=C(Oc1ccc2c(c1)OCO2)c1cccs1	24	-0.1	2%	-0.2	3.6	0.76	-2.1
O=[N+]([O-])c1cc(Cl)ccc1-c1nc(-c2ccccc2)no1	-9	4.4	.	-1.9	-8.3	0.68	2.5
O=C1/C(=C/c2ccncc2)SC(=S)N1N1CCOCC1	5	7.2	.	-1.2	1.6	0.66	0.9
COc1cc(NC(=O)c2cccnc2)c(Cl)cc1NC(=O)c1ccccc1	6	0.9	1%	2.7	0.9	0.73	1.7

In another format: entries from further up.
Value order: B2AR ag	UCH37 DUB inh	Vif A3G	Bfl-1 A1 inh	LANA-H2B inh	Ecoli growth	HNF4A DNA FP
Cc1cc(S(=O)(=O)Nc2ccc(C(=O)NCc3ccncc3)cc2)ccc1F
→ 0	2.0	.	1.0	5.2	0.69	0.4
O=C(O)CCCC(=O)Nc1ccc(Oc2cccc(C(F)(F)F)c2)nc1
→ -1	4.0	-5%	-1.2	-1.4	0.68	3.2
Cc1ccc(NC(=O)CSc2nnc(C)c(=O)[nH]2)cc1C
→ -3	3.6	-5%	1.8	1.1	0.67	-4.0
C=CCNC(=S)NNC(=O)c1csc(C)c1CC
→ 5	1.4	7%	0.0	11	0.7	-1.8
CCN1C[C@@H]2[C@@H]3C(=O)N(C)C(=O)[C@@H]3[C@](Cc3ccccc3)(C1=O)N2C(=O)c1ccc(Br)cc1
→ -2	5.1	.	.	.	.	-3.1
O=C(NN=C1CCCCCC1)NC1CCCCC1
→ 4	1.1	9%	0.0	-2.7	0.63	0.6
COc1ccccc1NC(=O)CCN1C(=O)/C(=C/c2cc(OC)c(OC)c(OC)c2)SC1=S
→ -4	2.5	.	0.2	-2.1	0.73	-2.1
Cc1cc(OCCCCCNCCO)ccc1Cl
→ 8	0.1	?	-1.1	-9.2	0.65	-5.3
Cc1ccc(OCC(=O)NNC(=O)C2CCN(c3ncccn3)CC2)cc1
→ -11	-5.0	-6%	0.3	-3.3	0.65	1.5
Cn1ncc(C#N)c1NC(=O)C1CC(c2c(F)cccc2Cl)=NO1 (stereo not given)
→ 5	3.4	-5%	-0.6	-1.5	0.75	-3.8
N#Cc1ccccc1Cn1c(=O)n(C2CCCC2)c(=O)c2ccccc21
→ 1	0.2	3%	-0.2	-2.6	0.73	-0.3
Cc1ccc(C)c(C(=O)NCc2ccncc2)c1
→ 4	0.0	24%	-0.1	0.8	0.76	0.3
COc1ccccc1N(C)S(=O)(=O)c1ccc(C(=O)N(C)Cc2ccc(Cl)s2)cc1
→ 7	0.6	-7%	-0.5	-5.0	0.69	0.1
Cc1cc(NC(=O)c2noc3c2CCCC3)n(-c2ccccc2)n1
→ -2	-0.2	1%	0.1	0.7	0.63	-0.7
CC(C)CNC(=O)c1cccc(NC(=O)c2ccc3c(c2)C(=O)N(C)C3=O)c1
→ -4	5.9	.	0.2	5.8	0.66	-3.7

Screening results from PubChem BioAssay.
